Compound activity (PubChem BioAssay)
PINK1 expr mod = modulators of PINK1 expression; PINK1 immunofluorescence, high-content cytometry, 24 h; Potency, µM (doses to about 76.6 µM), without a hit: top-dose activation (PINK1 increase), usual class: activators; 0.2% of 410,000 active; active = well fitted activation curve with a large enough effect; inconclusive = small, poorly fitted or top-dose-only effect; inactive = flat fitted curve, though single readings scatter; cell line not stated here;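 further: potency means the concentration at half of the fitted maximal effect; % of control where 0% means no effect; nearly all actives have a fitted effect of over 65% in size; a mitochondrial uncoupler was the plate control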
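Stable cell line, 250 cells/well, 12 h attachment; compounds pinned at 5 concentrations, 24 h; CCCP control. Fixed with nuclear dye, primary antibodies 12 h at 10 degrees C, secondary plus cell stain; laser-scanning cytometer read.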
D2 agonist = activates the human D2 dopamine receptor. P14416. DiscoveRx PathHunter D2 beta-arrestin, luminescence, 90 min; 100% = 57 uM dopamine signal. activation, % (no concentration beside the values). 0.084% of 360,000 active; in the data active = activation above about 40%; inconclusive = about 15% to 40%; inactive = below about 15%; further: compound concentration not given in the record; the text of the record calls up to 30% inactive
Target sequence (P14416 whole entry, looked up): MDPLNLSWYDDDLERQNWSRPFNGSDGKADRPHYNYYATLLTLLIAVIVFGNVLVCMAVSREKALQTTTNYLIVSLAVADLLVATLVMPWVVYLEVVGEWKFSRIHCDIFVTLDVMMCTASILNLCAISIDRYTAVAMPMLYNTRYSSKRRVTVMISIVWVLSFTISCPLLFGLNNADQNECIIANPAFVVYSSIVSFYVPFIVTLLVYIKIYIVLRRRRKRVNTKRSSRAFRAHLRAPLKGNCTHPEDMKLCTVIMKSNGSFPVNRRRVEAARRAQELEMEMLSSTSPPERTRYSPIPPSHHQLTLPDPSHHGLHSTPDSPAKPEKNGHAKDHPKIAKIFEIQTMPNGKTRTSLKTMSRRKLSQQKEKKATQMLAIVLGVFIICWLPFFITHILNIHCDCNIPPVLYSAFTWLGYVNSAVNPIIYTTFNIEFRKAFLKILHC
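DiscoveRx PathHunter D2 beta-arrestin cells (2,100/well) attached overnight, then compound-stimulated 90 min at 37 C in HBSS/10 mM HEPES/0.1% Tween-20 buffer; beta-galactosidase complementation read by luminescence after 1 h at ambient temperature. Dopamine 57 uM final (EC100) as control.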
Menin MLL FP FL = displaces fluorescein MLL peptide from human menin. Fluorescence polarization, fluorescein-MLL peptide displacement from menin. FP activity change, % at 61.4 µM. 290,000 tested, under 10 active. AID 1766; inconclusive = falling polarisation curve, or a change in total fluorescence; inactive = total fluorescence flat and polarisation flat or rising; no compound was filed as active; the % refers to the polarisation; negative = inhibition;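 further: % of control where 0% means no effect; inhibitors lower the polarisation; unlabelled MLL peptide was the positive control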
ClpP mod = qHTS Assay for Activators of ClpP; ATP-dependent Clp protease proteolytic subunit (Bacillus subtilis (strain 168)), P80244; purified B. subtilis ClpP, FRET peptide cleavage, 20 min; Potency, µM (titrated, usually from 57.5 µM), inactives show at the highest dose activity change, negative = active; 1.9% of 340,000 active; AID 651965, 2013; active = well fitted falling curve with a large enough effect; inconclusive = small, poorly fitted or top-dose-only effect; inactive = no such curve, though single readings can be large or run the other way; further: potency means the concentration at half of the fitted maximal effect; the source files actives as falling curves though it sought activators and does not explain the sign; nearly all actives have a fitted effect of over 65% in size; many hits overshoot -100%
Target sequence (P80244 whole entry, looked up): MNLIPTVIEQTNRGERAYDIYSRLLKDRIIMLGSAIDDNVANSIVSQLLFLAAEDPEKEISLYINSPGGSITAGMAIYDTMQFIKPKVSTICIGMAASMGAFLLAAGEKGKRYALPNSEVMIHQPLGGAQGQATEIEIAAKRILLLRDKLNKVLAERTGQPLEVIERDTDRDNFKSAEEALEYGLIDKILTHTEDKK
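FRET quenching reversal measured ClpP activation: 10 microg/mL B. subtilis ClpP at pH 8 with the FRET-FV decapeptide, read at 430 nm after 320 nm excitation. The 20-min minus 0-min signal was scaled between DMSO/no-enzyme wells and ADEP (5.8 microM final).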
gsp ag = activates gsp, the McCune-Albright syndrome mutation; AID 624287; 0.13% of 340,000 active; gsp mutant cells, cAMP HTRF, 30 min; control for the full effect not named in the record; Potency, µM (highest dose often 76.9 µM), inactives show top-dose activation (cAMP increase), usual class: activators; active = well fitted activation curve with a large enough effect; inconclusive = small, poorly fitted or top-dose-only effect, or another doubt; inactive = no such curve, though single readings can be large or run the other way; cell line not stated here;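 further: phosphodiesterase inhibitor Ro 20-1724 added with compounds to block cAMP breakdown; potency means the concentration at half of the fitted maximal effect; nearly all actives have a fitted effect of over 60% in size; about a fifth of the inactives were tested at one dose only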
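Cells in DMEM/10% FBS with G418 were pretreated with compounds in DMSO plus […] (300 uM stock) for 30 min at 37C. cAMP was measured by HTRF (cAMP-d2 plus anti-cAMP antibody-K) after 30 min at room temperature.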
gsp antag = gsp mutant antagonism | gsp-mutant cells, cAMP HTRF, 30 min; control for the full effect not named in the record | Potency, µM (series often up to 76.9 µM), for the others: at the top dose activity change, negative = inhibition, usual class: inhibitors | 0.4% of 340,000 active; active = falling curve of any shape with a large fitted effect; inconclusive = falling curve, mostly with a smaller effect; inactive = flat or rising curve; cell line not stated here;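 further: intracellular cAMP measured with PDE inhibitor Ro 20-1724 present during compound exposure; potency means the concentration at half of the fitted maximal effect; on the % scale 0 is the no-effect control and ±100 the full control effect; nearly all actives have a fitted effect of over 65% in size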
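HTRF cAMP read-out (cAMP-d2 plus anti-cAMP antibody-K in lysis buffer, 30 min RT). Before lysis, cells are exposed to compounds with […] for 30 min at 37C in DPBS containing Ca/Mg, BSA and Tween 20.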
Sfp inh = inhibitors of Bacillus subtilis Sfp phosphopantetheinyl transferase; Biochemical Sfp PPTase activity, qHTS; Q9F4F7; Potency, µM, inactives show max response, negative = inhibition, actives largely listed as inhibitors; 3.5% of 310,000 active; active means well fitted inhibition curve with a large enough effect; inconclusive means small, poorly fitted or top-dose-only effect, or another doubt; inactive means no such curve, though single readings can be large or run the other way;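 further: the enzyme is Sfp with the accession as filed and its product quenches rhodamine fluorescence; potency means the concentration at half of the fitted maximal effect; 0% = enzyme reaction without inhibitor and -100% = no enzyme wells; top concentration of the series not given in the record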
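Step 1, compound plus 15 nM Sfp-PPTase, 15 min, room temperature. Step 2, add rhodamine-CoA (5 uM) and BHQ-2-YbbR (12.5 uM). Step 3, read 525/598 nm fluorescence at 0 and 30 min.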
Numbers without * were called inactive; u = inconclusive; x = no result given; [ ] = another dose, or the depositor's remark.

SMILES	PINK1 expr mod	D2 agonist	Menin MLL FP FL	ClpP mod	gsp ag	gsp antag	Sfp inh
COCCNCC(=O)Nc1ccc(OC(F)(F)F)cc1	0.8%	-1.9	-8.2	x	9%[15.4 µM]	-3%	-16%
Cc1cc(C)n(CCC(=O)N2CCCC(Nc3ccc(F)cc3)C2)n1 (stereo not drawn)	3.7%	-2.8	x	1.2%	-18%	0%	x
O=C(NCCN1CCOCC1)C12CC3CC(C1)CC(c1ccccc1)(C3)C2	-1.7%	0.5	-0.3	x	-4%[15.4 µM]	4%	7%
COC(=O)COc1cccc(NS(=O)(=O)c2ccc(NC(C)=O)cc2)c1	-4.5%[38.3 µM]	2.3	4.6	-3.2%	-36%[inhibitor]	-9%	19%
CC1=C(C(=O)OCC2CCCCC2)C(c2ccc(O)cc2)NC(=O)N1 (stereo not drawn)	1.5%	1.3	-5.3	1.2%	-5%[15.4 µM]	6%	0%
Cc1ccc(N(C(=O)Cn2nnc(-c3ccc(C)o3)n2)C(C(=O)NC2CCCC2)c2ccncc2)cc1 (stereo not drawn)	14%	-1.5	x	x	-8%[15.4 µM]	3%	20%
CC12CCC(C(N)=O)(c3nc4ccccc4nc31)C2(C)C (stereo not drawn)	12%	-2.7	1.0	-4.0%	-5%	5%	9%
Cc1c(Cl)cccc1NC(=O)CSc1nc(=O)n(CCCN2CCOCC2)c2c1CCCC2	-1.1%	-1.8	x	-7.8%	13%	x	x
O=C(O)CCCNS(=O)(=O)c1cccc2nsnc12	-0.2%	-2.6	1.7	0.2%	-24%	4%	17%
COc1ccc(NC(=O)Nc2ccccc2F)cc1Cl	5.9%	-2.5	0.7	x	u	2%	16%
CCOC(=O)C1CCN(C(=O)CNC(=O)OC(C)(C)C)CC1	1.1%	-3.2	0.4	1.1%	1%	5%	11%
O=C(CCc1ccccc1)NC(NC(=S)Nc1ccc(Br)cc1)C(Cl)(Cl)Cl (stereo not drawn)	0.3%[38.3 µM]	6.4	2.6	-1.2%	15%	0%	-1%
Cc1ccc(S(=O)(=O)NCC(=O)NCC(=O)N2CCC(C)CC2)cc1	0.5%	3.0	-2.2	-1.9%	-1%[15.4 µM]	-5%	7%
CN1CCN(C(=O)c2ccc3c(Cl)c4c(nc3c2)CCCC4)CC1	-1.1%	2.7	4.9	-0.9%	19%	6%	-12%
C#CCOCCOCCOCCNc1nc(N2CCN(C(=O)[C@H]([C@@H](C)O)n3cc(CCCCN)nn3)CC2)nc(N2CCN(C(=O)[C@H](C)n3cc(CCCN=C(N)N)nn3)CC2)n1	1.5%	-3.8	-1.4	1.4%	11%	0%	14%
COc1ccc(NC(=O)CSc2ccc3nnc(CCNC(=O)c4ccccc4)n3n2)cc1OC	1.3%	-1.0	x	-2.0%	u	10%	0%
O=C1C=C(c2ccc(Oc3ccccc3)cc2)C[C@@H](c2ccc3c(c2)OCO3)C1	1.0%	-3.0	x	0.7%	-17%	0%	x
Cc1ccc(CS(=O)(=O)CCC(=O)NCCN2CCCC2)cc1	x	-2.7	0.7	-17%	5%	4%	9%
COC(=O)c1cc2occc2n1CC(=O)N(C)C1CCCCC1	x	0.9	-2.4	0.7%	-20%	0%	11%
CNS(=O)(=O)c1cccc(C(=O)OCC(=O)N2c3ccccc3CC2C)c1 (stereo not drawn)	-1.6%	-0.1	-0.2	-1.4%	0%	-2%	-1%
CSc1nc2ccc(NC(=O)C3CC(=O)N(Cc4ccccc4)C3)cc2s1 (stereo not drawn)	0.6%	-0.7	0.7	-3.4%	0%	-18%	1%
Cc1ccnc(N2CCC(C(=O)NCc3ccccc3F)CC2)n1	0.9%	-2.6	-0.5	x	-2%[15.4 µM]	4%	19%
CC(=O)N1CC[n+]2c(-c3ccc(Cl)cc3)csc21	-0.9%	-4.5	5.3	0.2%	7%	-8%	u
Cn1c(=O)c2[nH]c(CCCc3ccc([N+](=O)[O-])cc3)nc2n(C)c1=O	1.9%	0.1	x	-18%	16µM*	8%	x
O=C(c1ccc(F)cc1)N1CCN(S(=O)(=O)c2ccc(Br)cc2)CC1	0.7%	6.3	x	0.0%	-16%	-11%	7%
S=C(Nc1ccc(Cl)cc1Cl)Nn1cnnc1	0.4%	-4.4	0.3	x	-7%	0%	13µM*
Cc1ccc(C(=O)NC(NCc2ccco2)C(Cl)(Cl)Cl)cc1 (stereo not drawn)	2.4%	0.2	1.3	-1.3%	7%	-6%	4%
O=C(COC(=O)Cc1c(Cl)cccc1Cl)NCc1ccco1	6.2%	-1.7	x	2.2%	-8%	6%	x
NC(=O)c1ccccc1N=Cc1cccnc1	-0.4%	-2.9	x	x	29%	2%	x
COC(=O)c1cccc(NC(=O)CN2C(=O)C3CCCCC3C2=O)c1 (stereo not drawn)	-3.8%	2.1	x	x	-26%[15.4 µM]	9%	x
COc1ccc(C(=O)Nc2ccc(S(=O)(=O)NC(C)=O)cc2)cc1[N+](=O)[O-]	1.9%	-6.2	0.1	x	0%[15.4 µM]	-4%	15%
O=C(NC1=NCCS1)c1cc(-c2cccnc2)nc2ccccc12	9.4%	-1.7	0.7	4.1%	-12%[15.4 µM]	4%	15%
Cn1c(=O)c2sc3c(c2n(CC(=O)Nc2ccccc2)c1=O)COC(C)(C)C3	-0.2%	0.3	x	x	-6%	8%	11%
CC(=O)c1ccc(N2CCN(C(=O)c3cc4c(s3)CCCC4)CC2)cc1	-0.5%	-0.9	1.9	-6.6%	-25%	-13%	-9%
CCn1ccc(=N)cc1	0.6%	-3.5	5.7	0.7%	-89%[inhibitor]	12%	4%
O=C(C[N+]1(CC#Cc2ccccc2)CCOCC1)c1ccc(Cl)cc1	11%	-7.5	-3.3	x	-6%[15.4 µM]	x	6%
COCCOC(=O)c1c(C)nc(SCC(=O)Nc2cccc3ccccc23)c(C#N)c1-c1ccco1	0.5%	-1.8	3.0	u	-34%[inhibitor]	-2%	7.9µM*
Cc1ccc(-n2c(C)cc(C3=NNC(=NC4CC4)SC3)c2C)cc1C	u	-4.2	3.4	-4.2%	-2%	-3%	-29%
NC(=S)NNC(=O)Nc1ccc(Cl)c(Cl)c1	2.5%	-2.4	1.6	22µM*	-22%	-3%	-26%
Oc1c(Br)cc(Br)cc1CNn1cnnc1	0.1%	-3.5	-4.0	x	u	8%	7%
C=C1CCN([C@@H](CC(C)C)C(=O)NCc2ccc(OC)cc2)S(=O)(=O)c2ccccc21	-1.7%	-0.8	x	1.3%	u	-1%	x
O=C1CCCN1CCCn1cnc2c([nH]c3ccc(F)cc32)c1=O	3.5%	0.7	7.1	u	12%	6%	8%
COC(=O)c1ccc(CSc2nc3ccccc3o2)cc1	0.5%	-4.2	3.2	-0.5%	-23%	-18%	-25%
COc1ccc(NC(=O)C(c2ccccc2)N2CCN(c3ccccn3)CC2)cc1Cl (stereo not drawn)	4.0%	-0.7	-1.7	x	-1%	-11%	20%
Cc1ccc2c(c1)N(CC(=O)N1CCCc3ccccc31)C(=O)CO2	-0.1%	-2.1	-4.5	-6.6%	-18%	-7%	7%
Cc1cc(C)n2nc(SCC(=O)N3CCC(C(=O)O)CC3)nc2n1	-1.8%	1.5	x	0.5%	-1%[15.4 µM]	10%	x
CC(NCc1ccccc1O)C12CC3CC(CC(C3)C1)C2 (stereo not drawn)	20%	3.2	0.5	-0.4%	1%	14%	4%
Cc1cccc(CN2CCCC(C(=O)c3ccc4c5c(cccc35)CC4)C2)n1 (stereo not drawn)	u	-6.1	0.7	-12%	u	-1%	13%
COc1ccc(CN(C)Cc2cc(=O)n3ccsc3n2)c(OC)c1OC	-1.1%	0.5	4.6	x	0%	0%	3%
CN(C)c1cccc2c1c(NC(=O)c1ccc(Cl)cc1)nn2C	-0.1%	4.4	1.6	x	-10%	-11%	-12%
Cc1ccnc(NC(=O)c2ccc(COc3c(F)c(F)cc(F)c3F)o2)c1	2.5%	2.5	2.8	-25%	-3%[15.4 µM]	-13%	1%
CCOc1cc(/C=C2/NC(=O)N(CC(=O)Nc3cccc(C)c3)C2=O)ccc1OCC(N)=O	-0.9%	-19	3.1	x	-3%[15.4 µM]	3%	-9%
CN(C)N1C(N)=C(C#N)C(c2ccccc2Cl)C2=C1CCCC2=O (stereo not drawn)	-0.5%	4.6	15	1.9%	-5%[15.4 µM]	-5%	2%
NC(=O)C1CCN(C(=O)Cc2ccc(-c3ccccc3)cc2)CC1	0.3%	-1.0	9.7	x	3%[15.4 µM]	-7%	2%
O=C(/C=C/c1ccc2c(c1)OCO2)NCc1ccc(F)cc1	-0.2%	-1.5	3.4	u	21%	-12%	5%
CS(=O)(=O)N(CC(=O)NC1CCCC1)Cc1ccc(F)cc1	-1.9%	-2.8	-2.7	x	-1%[15.4 µM]	x	12%
Fc1ccc(COc2ccc(Br)cc2CNCc2ccncc2)cc1	-2.8%[38.3 µM]	2.0	-0.5	-2.3%	-66%[inhibitor]	-26%	-2%
CC(C)n1cnnc1SCC(=O)NC(=O)c1ccccc1	0.4%	-2.7	x	x	-14%[15.4 µM]	6%	x
CCOC(=O)c1c(N2C(=O)C3C4C=CC(O4)C3C2=O)sc2c1CCCC2 (stereo not drawn)	2.2%	-3.1	1.7	3.2%	-54%[inhibitor]	9%	8.9µM*
CCOC(=O)c1nn(-c2ccccc2)c(=O)cc1OCC(=O)Nc1cc(C)ccc1C	3.8%	-2.1	x	1.1%	-16%	-5%	x
The list continues:
SMILES	PINK1 expr mod	D2 agonist	Menin MLL FP FL	ClpP mod	gsp ag	gsp antag	Sfp inh
Cc1ccc(S(=O)(=O)NCC(=O)N2CCc3ccccc3C2)cc1	-0.2%	1.3	-7.3	x	-15%	3%	14%
COc1cccc(C2c3c(-c4ccccc4)n[nH]c3C(=O)N2c2ccc(C(=O)O)cc2)c1 (stereo not drawn)	6.9%[38.3 µM]	1.0	1.4	0.2%	14%	-8%	18%
CCc1cc2c(=O)n(-c3ccccc3)cnc2s1	1.0%	-3.3	2.1	3.5%	7%	2%[15.4 µM]	10%
CC1=C([N+](=O)[O-])C(c2cccc(Br)c2)C2=C(N1)c1ccccc1C2=O (stereo not drawn)	0.9%	-1.2	4.4	0.8%	5%	u	u
